High-throughput results: PubChem BioAssay, Johns Hopkins Ion Channel Center
KCNQ2 pot – potentiators of rat KCNQ2 potassium channel. AID 2239, 2010. hit rate 0.54% among 310,000. CHO-K1 KCNQ2, FluxOR thallium flux fluorescence; active compounds read high. Potassium voltage-gated channel subfamily KQT member 2 (Rattus norvegicus), O88943. B-score at 10 µM;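 active = fluorescence ratio B-score at least 3 SD of library B-scores, with initial fluorescence B-score within 3 SD, cut at about 5.3 in these data; same plate scores as AID 2156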;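 also: B-score of peak minus minimum over baseline fluorescence ratio after K+ and Tl+ stimulus; positive B-score means potentiation of KCNQ2 with more thallium influx and brighter signal; only the inactives scoring about 0 or higher are listed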
Target sequence (O88943 whole entry, looked up): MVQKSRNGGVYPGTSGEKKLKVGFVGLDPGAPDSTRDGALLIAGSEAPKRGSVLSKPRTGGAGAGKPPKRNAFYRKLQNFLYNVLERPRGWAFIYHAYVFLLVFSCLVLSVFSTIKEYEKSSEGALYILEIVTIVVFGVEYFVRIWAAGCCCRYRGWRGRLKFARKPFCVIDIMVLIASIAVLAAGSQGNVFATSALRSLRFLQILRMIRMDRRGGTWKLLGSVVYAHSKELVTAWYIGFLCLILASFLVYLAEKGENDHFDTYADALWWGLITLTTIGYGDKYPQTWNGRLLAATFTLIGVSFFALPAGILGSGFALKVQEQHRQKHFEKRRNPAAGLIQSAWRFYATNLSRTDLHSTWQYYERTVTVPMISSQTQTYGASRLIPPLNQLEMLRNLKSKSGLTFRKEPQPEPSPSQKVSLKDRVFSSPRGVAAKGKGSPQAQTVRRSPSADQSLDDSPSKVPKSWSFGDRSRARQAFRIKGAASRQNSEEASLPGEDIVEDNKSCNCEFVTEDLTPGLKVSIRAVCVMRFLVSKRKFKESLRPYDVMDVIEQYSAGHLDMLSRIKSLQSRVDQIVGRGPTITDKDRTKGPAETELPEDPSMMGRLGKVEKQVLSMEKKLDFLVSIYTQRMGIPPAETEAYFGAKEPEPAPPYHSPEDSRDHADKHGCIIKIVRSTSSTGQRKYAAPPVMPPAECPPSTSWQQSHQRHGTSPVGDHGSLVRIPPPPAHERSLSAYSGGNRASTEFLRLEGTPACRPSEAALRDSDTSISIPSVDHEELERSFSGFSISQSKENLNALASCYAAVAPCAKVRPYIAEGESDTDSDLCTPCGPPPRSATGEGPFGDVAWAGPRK
KCNQ2 pot baseline – second read-out of KCNQ2 pot, no call of its own (marks repeat the call); B-score; compound at 10 µM; measured here: initial fluorescence intensity artifact check;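 brightness before thallium and not channel activity; 0 = typical well and far values either way flag optical interference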
An asterisk follows results filed as active. An excerpt (hit frequency here may not be typical).

Results follow in this order: KCNQ2 pot	KCNQ2 pot baseline
> Cc1ccc(C(=O)N2CCC(C(=O)NCc3cccnc3)CC2)cc1
    0.67	-0.98
> COc1ccc(NS(=O)(=O)c2cccc(C(=O)Nc3cccc(C(=O)O)c3)c2)cc1
    0.38	0
> CC(C)c1cc(C(C)C)c(S(=O)(=O)N2c3ccccc3[C@]3(Br)C[C@H]4C(=O)N[C@@H](Cc5ccccc5)C(=O)N4[C@H]23)c(C(C)C)c1
    0.53	-1.2
> CCCNC(=O)CS(=O)Cc1nc(-c2ccc(OC)cc2)oc1C (configuration not stated)
    0.76	1.7
> Cn1cnc([N+](=O)[O-])c1Sc1ccc(Br)cc1
    0.14	-2.3
> CCOCCOc1cccc(C(=O)NC(C)c2ccc3ccccc3c2)c1 (configuration not stated)
    0.19	-0.97
> CC1(C(=O)O)CCC(C(N)=O)C1(C)C (configuration not stated)
    0.01	-0.24
> CCCCC1=CC2=CC(=O)C(C)(OC(=O)CC)C(=O)C2=CN1CCCCO (configuration not stated)
    0.67	-0.75
> CCN(CC)c1ccc(/C=N/N=C(N)N)c(O)c1
    1.2	0.19
> CCOc1ccc(-c2c(C)n([O-])c3c([n+]2=O)CCCC3)cc1
    0.37	1.7
> O=C(CNC(=O)c1ccc(Cl)cc1)OCc1nc2ccccc2s1
    0.54	0.35
> CC(C)C[C@H]1COCCS(=O)(=O)N1Cc1cccc(C(F)(F)F)c1
    0.04	-0.84
> O=c1c2cc(NC(=S)NCCCN3CCC(Cc4ccccc4)CC3)ccc2nc2n1CCCCC2
    0.02	-0.09
> S=c1[nH]nc(CCc2nc3ccccc3[nH]2)n1-c1cccc(Cl)c1
    1.2	1
> O=C(NC(=S)Nc1ccccc1Cl)c1ccco1
    11*	-1.4*
> Cn1nnnc1SCC(=O)NC(=O)NCc1ccccc1
    1.2	0.59
> CCOc1ccc(NC(=O)C2C3C=CC4(O3)C2C(=O)N(Cc2cccnc2)C4C(=O)NC2CCCCC2)cc1 (configuration not stated)
    0.14	-1.6
> Cn1c(N)c(C(=O)COC(=O)c2ccnc3ccccc23)c(=O)n(C)c1=O
    0.15	-0.92
> CCN(CC)c1ccc2cc(C(=O)NNC(=O)c3ccc(S(=O)(=O)N4CCCCC4)cc3)c(=O)oc2c1
    0.14	-0.67
> COC(=O)c1sccc1NS(=O)(=O)c1ccc(F)cc1F
    1.6	1.9
> CCC(Sc1nc2ncnc(N)c2[nH]1)C(=O)O (configuration not stated)
    0.03	-1.4
> CC(C)CC(NC(=O)CCl)c1ccccc1 (configuration not stated)
    2.4	0.21
> CCc1ccccc1NC(=O)CC(c1ccc(OC)cc1)n1cccc1 (configuration not stated)
    0.09	-0.4
> Cc1ccc(CNC(=O)C2CC(c3cc(C(F)(F)F)cc(C(F)(F)F)c3)=NO2)o1 (configuration not stated)
    0.41	1.6
> O=C(c1ccco1)N(Cc1cc2ccccc2[nH]c1=O)C1CCCCC1
    1	-1.6
> O=C(O)CCc1ccc(-c2ccccc2)n1-c1ccc(C(=O)O)cc1
    0.98	0.03
> CC(C)(C)c1ccc(Oc2ccc(N)cn2)cc1
    12*	-0.64*
> CC(/C=C/c1ccccc1)=N\NC(=O)c1ccc2c(c1)OCCO2
    0.6	0.35
> CCO[C@@H]1OC(C(=O)NCc2nc3ccccc3[nH]2)=C[C@H](C(C)(C)C)[C@H]1CCCO
    1.9	-1.8
> Cc1cc(C)c(O)c(-c2cc(C(=O)NCc3ccccc3)[nH]n2)c1
    0.1	1.4
> CCOC(=O)CCCOC(=O)c1ccc(S(=O)(=O)N(C)C)cc1
    0.51	-0.25
> O=C1NC(c2ccc(-c3ccccc3[N+](=O)[O-])o2)C(C(=O)c2ccccc2)C(O)(C(F)(F)F)N1 (configuration not stated)
    0.55	-0.22
> COc1ccc(NC(=O)C2(N(CC(C)C)C(=O)Cn3nnnc3N)CCCCC2)cc1
    0.9	0.59
> Cc1nn(-c2ccccc2)c(C)c1C(=O)NNC(=O)C(F)(F)F
    1.4	0.56
> Cc1ccc(SCC(=O)OCC(=O)N(C)CC(=O)Nc2ccccc2Cl)cc1C
    0.16	-0.5
> CCC(=O)N1CCc2cc(S(=O)(=O)CCC(=O)NCc3ccco3)ccc21
    0.03	1.4
> CCOC(=O)N1CCN(C(=O)c2cn(C)c3ccc(S(=O)(=O)N4CCCC4)cc3c2=O)CC1
    1.1	-0.02
> CCC(=O)NS(=O)(=O)c1cccnc1Nc1ccccc1Cl
    0.41	0.39
> Cc1ccc(-c2csc(NC(=O)Cc3ccc(F)cc3)n2)o1
    1.8	-0.24
> Cc1cc(Cl)ccc1OCc1cn2cccnc2n1
    0.53	-2
> COc1cc(-n2c(C)nc3cccnc32)c(Cl)cc1C(=O)O
    1.1	0.96
> CSc1ccccc1NC(=O)CN(C)C(C)C(=O)Nc1ccc(C#N)cc1 (configuration not stated)
    0.44	-1.3
> Cc1sc2nc(CSCC(=O)Nc3ccccc3C#N)[nH]c(=O)c2c1C
    0.43	-0.49
> CCOC(=O)c1ccc(-n2cncn2)nc1
    0.42	-0.97
> CCN1C(=O)CS/C1=C(\C#N)S(=O)(=O)c1ccccc1
    0.24	1.8

Reprinted from the part before: 3 compounds; new compounds follow.
Results follow in this order: KCNQ2 pot	KCNQ2 pot baseline
> Cc1sc2nc(CSCC(=O)Nc3ccccc3C#N)[nH]c(=O)c2c1C
    0.43	-0.49
> CCOC(=O)c1ccc(-n2cncn2)nc1
    0.42	-0.97
> CCN1C(=O)CS/C1=C(\C#N)S(=O)(=O)c1ccccc1
    0.24	1.8
> CCCCc1cc(=O)oc2cc(C)cc(OCC(=O)N[C@@H](CSCc3ccccc3)C(=O)O)c12
    0.68	1.9
> Cc1cc(NCc2ccccn2)n2ncc(-c3ccccc3)c2n1
    0.64	0.54
> O=C(Nc1ccc2c(c1)OCO2)C1CCCN(S(=O)(=O)c2cccs2)C1 (configuration not stated)
    0.49	0.94
> COC(=O)c1ccccc1NS(=O)(=O)c1ccc2c3c(cccc13)C(=O)N2
    1.8	1.6
> COc1ccc(C(C)=O)c2c1OCCO2
    1.6	0.03
> CC1(C)CC(=O)C=C(NCCc2ccc(S(N)(=O)=O)cc2)C1
    0.83	-0.25
> COc1cccc(C(=O)Nc2ccc(C)cc2)c1
    1.4	-1.2
> CCc1ccc(NC(=O)C(=O)NCC2CCCO2)cc1 (configuration not stated)
    0.34	-0.21
> O=C(CN1C(=O)COc2ccc(S(=O)(=O)N3CCCCC3)cc21)NCc1ccc(Cl)cc1
    2.6	0.53
> FC(F)(F)c1ccc(N2CCOCC2)c(Nc2nc3ccccc3n3cnnc23)c1
    0.72	0.01
> COc1ccc(C(c2nnnn2CCc2ccccc2)N2CCN(C3CCCC3)CC2)cc1 (configuration not stated)
    0.05	2
> COc1ccc(C2C(C#N)=C(N)OC3=C2C(=O)CC(C)(C)C3)c(OC)c1OC (configuration not stated)
    0.3	0.14
> COCCSc1ccccc1C(=O)N1CCCC(C)C1 (configuration not stated)
    0.23	-1.5
> Cc1nnc(SCc2cc(=O)[nH]c(N3CCCCC3)n2)s1
    0.23	-0.24
> CNc1cc(C)nc(N2CCOCC2)n1
    0.7	1.4
> Cc1cccc(N/C(N)=N/c2nc3c(c(=O)[nH]2)CCCC3)c1
    1.4	0.14
> N#Cc1ccccc1CSc1nc2ncc(Br)cc2[nH]1
    0.04	0.1
> CCc1nc2ccc(C(=O)NC3CCC(C)CC3)cc2nc1CC (configuration not stated)
    1.4	0.78
> CN(C)C1=C(Cl)C(=O)N(c2ccc(Cl)c(Cl)c2)C1=O
    0.68	0.34
> Cc1ccc(-c2noc(COc3ccc4c(c3)OCO4)n2)cc1
    0.81	0.06
> COc1cc(/C=C/C(=O)OCC(=O)N2CCOCC2)ccc1OCC#N
    0.01	0.19
> O=C(CSc1ccc(-c2cccs2)nn1)Nc1ccccc1
    0.53	0.9
> CCn1c2ccccc2c2cc(NC(=O)c3ccc([N+](=O)[O-])cc3)ccc21
    0.7	-0.22
> Cc1cc(C(F)(F)F)nn1CC(=O)N1CCOCC1
    0.38	0.23
> Cn1c(N2CCN(C(=O)NCc3ccccc3)CC2)nc2ccccc21
    0.59	-1.8
> CCOC(=O)NN1C(=O)c2ccccc2NC12CCCC2
    0.69	-1.1
> Cc1ccc(C(CNS(=O)(=O)c2ccc(C)cc2)N2CCN(C)CC2)cc1 (configuration not stated)
    1.8	-0.6
> Cc1nc2c(ccc3nc(NC(=O)Cc4ccccc4)sc32)s1
    0.06	0.24
> COc1ccccc1C(=O)Nc1ccc(OCc2nnc3c4ccccc4c(C)nn23)cc1
    0.01	-0.47
> COc1ccc(CNC(=O)C2CCN(S(=O)(=O)N3CC(C)CC(C)C3)CC2)cc1 (configuration not stated)
    1.2	-0.41
> COc1ccc(-n2c(SCC(=O)Nc3ccc(C(=O)O)cc3)nnc2-c2cccs2)cc1
    0.24	1.7
> CCC(C)(C(=O)NC1CCCC1)N(C(=O)c1ccccn1)c1ccc(C)cc1 (configuration not stated)
    1.5	-0.02
> Cc1c(Cl)cccc1-c1ccc(CNCc2ccccn2)o1
    0.22	-0.55
> O=C(CSc1nnc(-c2cccnc2)o1)Nc1nccs1
    0.23	0.55
> CC1(C)Cc2c(cnn2-c2cccc(F)c2)C(NC(=O)Cn2cccn2)C1 (configuration not stated)
    0.28	-2
> O=C(CC1NC2CCCCC2NC1=O)Nc1cccc(C(F)(F)F)c1 (configuration not stated)
    0.75	1.2
> CCCCNC(=O)NNC(=O)c1ccc(F)cc1
    0.65	0.8
> Cc1c(-c2ccc(F)cc2)nc(N)c(C#N)c1-c1ccco1
    1.2	0.9
> CCOC(=O)C1CCN(C(=O)c2oc3ccc(S(=O)(=O)N4CCCCCC4)cc3c2C)CC1
    0.05	0.88
> CC(=O)Nc1ccc(NC(=O)CSc2nnc(NC(=O)Cc3ccc(F)cc3)s2)cc1
    0.02	-0.62
> CC(C)c1nc(=S)c2ccccc2[nH]1
    3.7	-0.53
> CN1CCN(c2nc(-c3ccco3)cc(C(F)(F)F)n2)CC1
    0.16	-2.3
> CN1CCC(CO)(Cc2ccccc2)CC1
    1.3	-2.3
> NC(=O)C1CCN(C(=O)/C=C/c2ccco2)CC1
    0.09	0.05
> COc1ccc(N=Cc2nc(-c3ccco3)oc2O)cc1
    1	0.36

As entered above.
CC(/C=C/c1ccccc1)=N\NC(=O)c1ccc2c(c1)OCCO2 – KCNQ2 pot baseline: 0.35
CCOc1ccc(NC(=O)C2C3C=CC4(O3)C2C(=O)N(Cc2cccnc2)C4C(=O)NC2CCCCC2)cc1 (configuration not stated) – KCNQ2 pot: 0.14
CCc1ccc(NC(=O)C(=O)NCC2CCCO2)cc1 (configuration not stated) – KCNQ2 pot baseline: -0.21

Going on with the list:
Results follow in this order: KCNQ2 pot	KCNQ2 pot baseline
> CCCC[n+]1c(C)sc2ccc(C)cc21
    0.05	0.25
> O=C(O)CN1C(=O)/C(=C\c2cccc(OC(=O)c3ccco3)c2)SC1=S
    0.79	-1
> CC(/C=N/NC(=O)Cc1cccn1C)=C\c1ccccc1
    1.3	2.2
> CCOc1ccccc1NC(=O)CNC(=O)CNC(=O)Cc1ccccc1
    0.58	0.28
> O=C(CSc1nc2ccccc2o1)N1CCN(c2ccccc2)CC1
    1.4	-1.2
> COc1cccc(-c2nnc(SCC(=O)Nc3ccc(OC)c(OC)c3)n2N)c1
    1.2	-1.9
> CCOC(=O)CSc1nc2cc(S(=O)(=O)N3CCOCC3)ccc2n1CC
    1	-1.4
> COC(=O)c1ccccc1NC(=O)c1ccc2c(c1)C(=O)N(Cc1ccco1)C2=O
    0.45	1.4
> c1cc(OCCCN2CCCCC2)ccc1CN1CCCCC1
    1.3	-0.69
> CCNS(=O)(=O)c1ccc(NC(=O)c2ccc(Cn3cc(Br)cn3)o2)cc1
    1.1	2
> Cc1[nH]c(=O)[nH]c(=O)c1S(=O)(=O)N1CCN(c2ccccc2F)CC1
    1.3	-0.28
> CC1CCN(C(=O)CSc2nnc(CN3CCOCC3)n2-c2ccccc2)CC1
    0.56	0.06
> CCSC1=C(C#N)C2(CCCC2)C(C#N)=C(N)N1
    2	0.55
> O=S(=O)(c1ccccc1)N1CCN(c2cc(-c3ccccc3)nc3ncnn23)CC1
    0.86	-1.6
> O=C(CCCC(=O)N(CC(=O)NC1CCCC1)c1cccc(F)c1)Nc1ccccn1
    1.4	-0.97
> CCO[C@@H]1OC(C(=O)N2CCN(C)CC2)=C[C@H](c2ccc(C(F)(F)F)cc2)[C@H]1CCCO
    1.6	-1.3
> COC(=O)N1CCc2c(sc(NC(=O)C3=COCCO3)c2C#N)C1
    0.03	0.15
> O=[N+]([O-])c1ccc(Cl)cc1N/N=C/c1ccncc1
    0.32	-0.02
> NS(=O)(=O)c1ccc(CCNCC#Cc2ccccc2)cc1
    0.41	0.61
> COc1ccc(N2CCN(Cc3nc4ccccc4n3C)CC2)cc1
    0.21	-3.6
> Cc1cc(=O)oc2cc(OCC(=O)OCC(=O)NCc3ccc4c(c3)OCO4)ccc12
    0.73	2.3
> CCn1c2ccccc2c2cc(NC(=O)CNCc3ccccc3OC)ccc21
    0.23	0.4
> CS(=O)(=O)n1nc(OC(=O)c2cccs2)cc1N
    0.37	1.1
> COC(=O)c1scc2c(Oc3ccccc3)cc(C(F)(F)F)nc12
    0.16	-0.24
> COc1cc(NS(=O)(=O)c2ccc3ccccc3c2)c2ncccc2c1
    0.06	-1.6
> COc1ccc(CNC(=O)CC2C(=O)NCCN2C2Cc3ccccc3C2)cc1 (configuration not stated)
    1.2	-0.94

Quoted at random: 2 entries already listed, in no set order.
Results follow in this order: KCNQ2 pot	KCNQ2 pot baseline
> CCO[C@@H]1OC(C(=O)N2CCN(C)CC2)=C[C@H](c2ccc(C(F)(F)F)cc2)[C@H]1CCCO
    1.6	-1.3
> COC(=O)c1scc2c(Oc3ccccc3)cc(C(F)(F)F)nc12
    0.16	-0.24
